# Shh pathway inh – Sonic Hedgehog pathway inhibition. Shh-LIGHT2 Gli-luciferase reporter, 30 h. AID 2313. inhibition, % (no concentration beside the values). 22,000 compounds, 2.1% hits;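 active = replicate mean of 65% or more; inconclusive = mean lower but half the replicates past it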;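 note: pathway switched on by Shh-conditioned medium diluted 1 in 25 in low serum; 100 nL library stock added to about 40 µL; 0% = median of neutral wells and 100% = positive control level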
# MITF inhib – blocks MITF activity. TRPM1 promoter luciferase, luminescence, 24 h. inhibition, % (test concentration not listed). 37,000 compounds, 0.28% hits. AID 2240;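 active = most replicates at 85% or more, or half of them and the mean; inconclusive = half reach 85% but not the mean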;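 note: human melanocyte line stably carrying TRPM1 promoter luciferase reporter; 0% = vehicle wells and 100% = a positive control; the first replicate is given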
# YB-1 expr inh – YB-1 expression inhibition. U2OS, qRT-PCR YB-1 vs CDIP delta delta Cp, 16 h; stronger effect = higher value; zero = DMSO, each unit about twofold. delta delta Cp (YB-1 minus CDIP) (concentration not given with the values). 30,000 compounds, 0.37% hits. AID 434959;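 active = delta delta Cp rounded down to an integer at or above 3, about 3 SD of DMSO wells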;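 note: higher means less YB-1 transcript or more CDIP transcript relative to DMSO; stock transfer was 100 nL into about 100 µL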
# PD-1 reverse act – activators reversing PD-1 mediated T-cell inhibition. primary human CD4 T cells, PD-L1 beads, CellTiter-Glo 96 h. activation, % (no concentration beside the values). 29,000 tested, under 10 active. AID 2316;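 active = replicate mean of 50% or more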;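 note: 0% = median vehicle wells and 100% = positive control; 100 nL library stock added to about 50 µL; numbers are from one replicate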
# The depositor's hits bear a star; ? = inconclusive; nt = not tested or not shown. Only part of the results is shown; the hit share may differ from the screen's.
SMILES,Shh pathway inh,MITF inhib,YB-1 expr inh,PD-1 reverse act
C[C@H]1CN([C@@H](C)CO)C(=O)c2cccc(NS(=O)(=O)c3cccs3)c2O[C@H]1CN(C)C,-24,-2,-0.059,0.1
C[C@@H]1CCCCO[C@@H](CN(C)C(=O)CCC(F)(F)F)[C@@H](C)CN([C@H](C)CO)C(=O)c2cc(NC(=O)Cc3ccccc3)ccc2O1,2,-1,0.5,nt
C[C@H]1CN([C@@H](C)CO)C(=O)c2cccc(NS(=O)(=O)c3ccc(Cl)cc3)c2O[C@@H]1CN(C)Cc1ccc(C(=O)O)cc1,-2,-19,-0.13,0.3
C[C@@H]1CN([C@H](C)CO)C(=O)c2cccc(NC(=O)Nc3ccc4c(c3)OCO4)c2O[C@H]1CN(C)Cc1ccc(C(F)(F)F)cc1,3,28,-0.064,nt
C[C@H]1CN([C@@H](C)CO)C(=O)c2cc(NC(=O)Cc3ccccc3)ccc2O[C@H]1CN(C)Cc1ccc(C(F)(F)F)cc1,-31,32,0.46,-1.0
COc1ccc(NC(=O)Nc2cccc3c2O[C@H](CN(C)Cc2ccccc2)[C@H](C)CN([C@@H](C)CO)C3=O)cc1,-37,-17,-0.079,1.9
C=CC(C)(C)C12CC3C(=O)NC(Cc4cnc[nH]4)C(=O)N3C1Nc1ccccc12 (stereo not drawn),-16,-6,1,0.8
C[C@@H]1CN([C@H](C)CO)C(=O)Cc2cc(NS(C)(=O)=O)ccc2O[C@H]1CN(C)S(=O)(=O)c1ccc(Cl)cc1,-6,5,0.068,-0.6
Cc1noc(C)c1NC(=O)Nc1ccc2c(c1)CC(=O)N([C@H](C)CO)C[C@@H](C)[C@@H](CN(C)C(=O)Nc1ccccc1)O2,-20,-8,0.094,3.0
Cc1cc(C)nc(Nc2ncc(O)n2-c2ccc(Cl)c(Cl)c2)n1,nt,11,-0.089,1.2
COc1cc(O)c2c(c1)CCc1cc(OC)c(OC)cc1-2,-16,nt,0.5,nt
C[C@@H]1CN([C@H](C)CO)C(=O)c2cccc(NC(=O)C3CCOCC3)c2O[C@H]1CN(C)Cc1ccc(C(F)(F)F)cc1,15,-9,0.18,nt
C[C@@H]1CN([C@@H](C)CO)C(=O)c2cc(NC(=O)CCC(F)(F)F)ccc2O[C@H]1CN(C)Cc1ccccc1,11,-1,0.032,nt
COc1ccc(NC(=O)Nc2ccc3c(c2)C(=O)N([C@H](C)CO)C[C@@H](C)[C@@H](CN(C)Cc2ccc(C(=O)O)cc2)O3)cc1,-23,-4,0.2,1.2
C[C@@H]1CN([C@@H](C)CO)C(=O)c2cc(NC(=O)Nc3ccc(F)cc3)ccc2O[C@@H]1CN(C)C(=O)NC1CCCCC1,-17,-8,-0.15,-1.0
Cc1cc(Cl)ccc1NC(=O)CN1CCC(C(N)=O)(N2CCCCC2)CC1,nt,-1,nt,-0.9
COc1ccc(CN(C)C[C@@H]2OCCCC[C@@H](C)Oc3ccc(NC(=O)Nc4ccc5c(c4)OCO5)cc3C(=O)N([C@H](C)CO)C[C@@H]2C)cc1,nt,22,-0.33,nt
C[C@@H]1CN([C@@H](C)CO)C(=O)c2cccc(NC(=O)C3CCCCC3)c2O[C@@H]1CN(C)Cc1ccc(C(F)(F)F)cc1,27,17,-0.56,-3.3
C[C@@H]1CCCCO[C@@H](CN(C)Cc2ccc3c(c2)OCO3)[C@@H](C)CN([C@H](C)CO)C(=O)c2cc(NC(=O)Nc3ccc(C(F)(F)F)cc3)ccc2O1,nt,8,0.066,-1.8
CC(C)CC(NC(=O)Nc1cccc2ccccc12)C(=O)O (stereo not drawn),-31,6,0.17,0.1
COC(=O)c1ccccc1NC(=O)COc1ccc(Br)cc1C(C)(C)C,nt,5,nt,-2.0
C[C@@H]1CN([C@@H](C)CO)C(=O)Cc2cc(NC(=O)Nc3ccccc3)ccc2O[C@@H]1CN(C)Cc1ccc(Cl)c(Cl)c1,-10,42,0.076,-3.4
CCCCN1C(=O)/C(=C2\SC(=Nc3ccc(Cl)cc3)N(C)C2=O)c2ccccc21,-3,11,-0.14,0.8
Cc1noc(C)c1NC(=O)Nc1ccc2c(c1)C(=O)N([C@H](C)CO)C[C@H](C)[C@@H](CN(C)S(=O)(=O)c1cccs1)OCCCC[C@@H](C)O2,8,-5,0.8,1.4
O=C(COc1ccc(CO)cc1Cl)Nc1ccc(F)cc1,nt,-67,nt,1.1
CC(C)NC(=O)Nc1ccc2c(c1)CC(=O)N([C@@H](C)CO)C[C@H](C)[C@H](CN(C)Cc1ccc3c(c1)OCO3)O2,-18,-4,-0.051,0.7
C[C@]12CCC3c4ccc(O)cc4CCC3C1C[C@@H](O)[C@@H]2O (stereo partly drawn),?,2,0.054,nt
O=C(CSc1nc2ccccc2c(=O)[nH]1)Nc1cccc(I)c1,nt,29,nt,-2.0
Cc1noc(C)c1NC(=O)Nc1ccc2c(c1)CC(=O)N([C@H](C)CO)C[C@@H](C)[C@H](CN(C)C(=O)NC(C)C)O2,-38,7,-0.25,1.9
COC(=O)c1cc(OC)c(OC)cc1NC(=O)CSc1nnc(-c2cccnc2)n1C,nt,-6,nt,-0.7
Cc1ccc(S(=O)(=O)N(C)C[C@@H]2Oc3ccc(NC(=O)Nc4ccccc4)cc3CC(=O)N([C@H](C)CO)C[C@H]2C)cc1,nt,-15,0.059,nt
C[C@H]1CN([C@@H](C)CO)C(=O)c2cc(NC(=O)C3CC3)ccc2O[C@@H]1CN(C)S(=O)(=O)c1ccc(Cl)cc1,1,-1,-0.086,0.1
Cc1sc2ncn(CC(=O)Nc3ccc(Oc4ccccc4)cc3)c(=O)c2c1-c1ccccc1,nt,28,nt,1.7
O=C(COc1ccc(S(=O)(=O)N2CCOCC2)cc1)Nc1ccc2c(c1)OCCO2,nt,0,nt,-1.1
Cc1ccc(S(=O)(=O)Nc2ccc3c(c2)C(=O)N([C@H](C)CO)C[C@H](C)[C@H](CN(C)C(=O)Nc2c(C)noc2C)OCCCC[C@@H](C)O3)cc1,-12,7,0.43,-1.1
C[C@@H]1CCCCO[C@H](CN(C)Cc2ccncc2)[C@@H](C)CN([C@H](C)CO)C(=O)c2cc(NS(=O)(=O)c3ccc(Cl)cc3)ccc2O1,6,-8,0.19,-0.5
Cc1noc(C)c1S(=O)(=O)N(C)C[C@H]1Oc2ccc(NS(=O)(=O)c3ccc(F)cc3)cc2C(=O)N([C@@H](C)CO)C[C@H]1C,-15,-4,0.02,-1.1
C[C@@H]1CN([C@H](C)CO)C(=O)c2cccc(NS(=O)(=O)c3cccs3)c2O[C@@H]1CN(C)C(=O)Nc1ccc(F)cc1,12,3,-0.067,0.0
C[C@H]1CN([C@@H](C)CO)C(=O)c2cc(NC(=O)CCCCCC(=O)Nc3ccccc3N)ccc2O[C@@H]1CN(C)CC1CCCCC1,nt,2,0.02,1.7
COc1ccc(CN(C)C[C@H]2Oc3c(NS(=O)(=O)c4ccc(F)cc4)cccc3C(=O)N([C@H](C)CO)C[C@H]2C)cc1,3,-3,0.22,0.8
COc1ccc2c(=O)cc(-c3ccccc3)oc2c1,-41,-109,-0.14,0.5
C[C@@H]1CN([C@H](C)CO)C(=O)Cc2cc(NC(=O)Cn3cnnn3)ccc2O[C@H]1CN(C)Cc1ccc(C(F)(F)F)cc1,-8,-1,0.2,0.4
CC(C)NC(=O)Nc1ccc2c(c1)CC(=O)N([C@H](C)CO)C[C@@H](C)[C@@H](CN(C)Cc1ccccc1)O2,9,-7,0.12,0.3
CCCCOc1cc(CC2CNC(=O)N2)ccc1OC (stereo not drawn),-31,2,0.32,-1.0
CN(C)CCc1c[nH]c2ccc(CS(=O)(=O)N3CCCC3)cc12,-8,6,0.24,nt
CCCn1c(SCC(=O)N2CCOCC2)nnc1-c1ccncc1,nt,-22,nt,1.8
COc1ccc(NC(=O)N(C)C[C@@H]2Oc3c(NC(=O)Nc4ccccc4)cccc3C(=O)N([C@@H](C)CO)C[C@@H]2C)cc1,8,-10,-0.016,nt
COc1ccc(NC(=O)Nc2cccc3c2O[C@H](CN(C)CC2CC2)[C@@H](C)CN([C@@H](C)CO)C3=O)cc1,-29,-7,-0.3,nt
C[C@H]1CN([C@@H](C)CO)C(=O)c2cccc(NC(=O)Nc3ccc4c(c3)OCO4)c2O[C@@H]1CN(C)C(=O)Nc1ccc(C(F)(F)F)cc1,-5,-6,0.2,nt
CC(C)S(=O)(=O)c1csc(NC(=O)N2CCCCC2)c1Cl,-29,0,0.093,0.5
# Other compounds
SMILES,Shh pathway inh,MITF inhib,YB-1 expr inh,PD-1 reverse act
COc1ccc(CN(C)C[C@H]2OCCCC[C@@H](C)Oc3ccc(NS(=O)(=O)c4ccc(F)cc4)cc3C(=O)N([C@H](C)CO)C[C@@H]2C)cc1,2,-4,0.077,nt
S=C(NC1CCCCC1)C12CCC3CC(CC(C3)C1)C2,0,7,-0.32,-0.2
C[C@H](CO)N1C[C@H](C)[C@@H](CN(C)S(C)(=O)=O)Oc2c(NC(=O)Nc3ccccc3)cccc2C1=O,-9,-10,0.26,0.5
Cc1occc1-c1nnc2sc(-c3ccc(-c4ccccc4[N+](=O)[O-])o3)nn12,nt,-44,nt,0.6
C[C@@H]1CN([C@H](C)CO)C(=O)c2cccc(NS(C)(=O)=O)c2O[C@H]1CN(C)C(=O)Nc1ccc(C(F)(F)F)cc1,1,-14,0.41,nt
C[C@H](CO)N1C[C@H](C)[C@H](CN(C)Cc2ccncc2)Oc2ccc(N(C)C)cc2CC1=O,-37,-3,0.1,1.3
C[C@H]1CN([C@@H](C)CO)C(=O)c2cccc(NC(=O)c3nc4ccccc4s3)c2O[C@H]1CN(C)C(=O)Nc1ccc(C(F)(F)F)cc1,33,5,0.24,-4.8
COc1ccc(S(=O)(=O)Nc2ccc3c(c2)CC(=O)N([C@H](C)CO)C[C@@H](C)[C@@H](CN(C)S(=O)(=O)c2ccc(F)cc2)O3)cc1,-24,-18,0.21,0.4
C[C@@H]1CN([C@H](C)CO)C(=O)c2cc(NS(=O)(=O)c3ccc(Cl)cc3)ccc2O[C@H]1CN(C)Cc1ccc(Cl)c(Cl)c1,nt,-13,-0.54,-1.9
NCCCCNS(=O)(=O)c1ccc2ccccc2c1,-13,-7,0.11,1.0

# Pulled one by one from the entries so far (3):
SMILES,Shh pathway inh,MITF inhib,YB-1 expr inh,PD-1 reverse act
S=C(NC1CCCCC1)C12CCC3CC(CC(C3)C1)C2,0,7,-0.32,-0.2
C[C@H](CO)N1C[C@H](C)[C@@H](CN(C)S(C)(=O)=O)Oc2c(NC(=O)Nc3ccccc3)cccc2C1=O,-9,-10,0.26,0.5
Cc1occc1-c1nnc2sc(-c3ccc(-c4ccccc4[N+](=O)[O-])o3)nn12,nt,-44,nt,0.6

# New compounds follow.
SMILES,Shh pathway inh,MITF inhib,YB-1 expr inh,PD-1 reverse act
COc1cc2c(cc1NC(=O)CSc1nnc(-c3cnccn3)n1-c1ccccc1)oc1ccccc12,nt,43,nt,0.3
Cc1noc(C)c1S(=O)(=O)Nc1cccc2c1O[C@@H](CN(C)C(=O)Nc1ccc(C(F)(F)F)cc1)[C@@H](C)CN([C@H](C)CO)C2=O,-18,9,-0.69,0.5
Cc1noc(C)c1S(=O)(=O)N(C)C[C@@H]1Oc2ccc(NC(=O)C3CCCCC3)cc2CC(=O)N([C@@H](C)CO)C[C@@H]1C,-10,-1,-0.083,-2.8
C=C1CC[C@@H]2[C@](C)(CO[C@@H]3O[C@H](CO)[C@@H](O)[C@H](O)[C@H]3O)CCC[C@@]2(C)[C@@H]1CCC1=CCOC1=O,-27,0,0.19,-1.5
C[C@H]1CN([C@@H](C)CO)C(=O)c2cc(NC(=O)CCN3CCOCC3)ccc2O[C@H]1CN(C)CC1CC1,-5,0,0.15,1.2
C[C@@H]1CN([C@H](C)CO)C(=O)c2cccc(NC(=O)Nc3ccc4c(c3)OCO4)c2O[C@H]1CN(C)C(=O)Nc1ccccc1,8,0,-0.38,nt
COc1ccc(CN(C)C[C@@H]2Oc3ccc(NS(=O)(=O)c4ccccc4)cc3CC(=O)N([C@H](C)CO)C[C@@H]2C)cc1,nt,-6,-0.48,0.9
CCOc1ccc2c(c1)sc(=NC(=O)c1ccc(S(=O)(=O)N3CCCCC3C)cc1)n2CC (stereo not drawn),-23,15,-0.09,2.7
COC(=O)c1cccc(NC(=O)COc2ccc(OC)cc2)c1C,nt,-23,nt,0.0
COC1=CC(=O)O[C@@H](CCc2ccccc2)[C@H]1O,0,-23,-0.48,-0.6
Cc1cc(C)nc(/N=C2\NC(=O)CC(C(=O)O)N2c2ccc(Oc3ccccc3)cc2)n1 (stereo not drawn),nt,-1,nt,2.0
C[C@H]1CN([C@@H](C)CO)C(=O)c2cccc(NC(=O)c3ccncc3)c2O[C@H]1CN(C)Cc1ccccc1,-34,-2,0.095,nt
COc1ccc(NC(=O)N(C)C[C@H]2Oc3c(NC(=O)C4CC4)cccc3C(=O)N([C@@H](C)CO)C[C@H]2C)cc1,21,-4,-0.33,0.1
O=C(CCN1C(=O)c2ccccc2C1=O)NC(=S)Nc1ccccc1,nt,-16,nt,1.6
CCCC1CCC(c2ccc(C(N)=O)cc2)CC1 (stereo not drawn),nt,-20,-0.55,1.2

# High-throughput results: PubChem, Broad Institute
